S aureus helic = S. aureus DNA helicase inhibition; purified S. aureus helicase, fluorescence unwinding assay; about half of the hits fall short of the stated cut; inhibition, %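 (tested at about 80 µM)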; actives 0.05% (n = 120,000);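 active means both duplicates at 50% or more, or one of them with a favoured structure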;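 further: 0% = mean of negative control wells and 100% = mean of positive control wells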
MgrA-DNA mod = alters Staphylococcus aureus MgrA binding to DNA; fluorescence polarization; inhibition, %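 (about 10 µg/mL by stock and volumes)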; actives 0.13% (n = 84,000); AID 602314;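 active means above 50% in either of two replicates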;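 further: 0% = protein plus DNA without compound and 100% = DNA alone without protein; higher means less MgrA bound to DNA so lower polarization; one replicate is shown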
* hit, by the source's call; / = no result given; & = joins results of further samples.

Every second line gives: S aureus helic	MgrA-DNA mod
- COc1ccc(N2CCN(CC(O)COc3ccc(-c4ccccc4)cc3)CC2)cc1 (stereo not drawn)
    7	/
- CCn1nnnc1SCC(=O)NC1CCCC1
    -6	1.4
- Cc1ccc(OCC(=O)Nn2cnc3ccccc32)cc1
    -4	/
- O=S1(=O)CCC(N2CCOCC2)C1 (stereo not drawn)
    6	-1.9
- COC(=O)c1ccc(CSc2nc(-c3ccccc3)cs2)o1
    -8	/
- COc1ccc(OC)c(S(=O)(=O)N(C)CC(=O)N2CCN(c3ccc(F)cc3)CC2)c1
    4	1.6
- O=C(CSc1ncnc2c1nnn2-c1ccc(F)cc1)NC1CCCCC1
    6	/
- Cc1ccc(/C=C2\SC(=S)N(NC(=O)c3ccccc3F)C2=O)o1
    -19	/
- COc1cc(C)c(S(=O)(=O)N2CCCC(C)C2)cc1C (stereo not drawn)
    -3	0.6
- Cc1ccccc1-c1nnc(N)s1
    -17	/

Next section; the last two above are carried over.
Every second line gives: S aureus helic	MgrA-DNA mod
- COc1cc(C)c(S(=O)(=O)N2CCCC(C)C2)cc1C (stereo not drawn)
    -3	0.6
- Cc1ccccc1-c1nnc(N)s1
    -17	/
- COc1ccccc1NC(=O)NN1CCCCC1
    -10	/
- O=C(O)c1ccc(C(=O)NCc2ccco2)c(C(=O)O)c1
    11	/
- NC(=O)N/N=C/c1ccc([N+](=O)[O-])o1
    /	5.0&8.8
- Cc1nnc(SCc2ccc(F)cc2)s1
    16	-0.1
- CN1C(=O)C=CC1=O
    -3	/
- O=S(=O)(c1cccs1)N1CCN(c2ccccc2F)CC1
    -4	/
- CCN(CC)c1ccc(-n2nc3cc(C)c(NC(C)=O)cc3n2)cc1
    -3	2.9
- CCc1nnc(NC(=O)c2sc(-c3cccc(Cl)c3)nc2C)s1
    -7	/
- CSc1nnc(-c2ccccc2)n1/N=C/c1cn[nH]c1-c1ccccc1
    16	5.6
- CC(O)CN=Cc1cc2ccccc2nc1Cl (stereo not drawn)
    3	/
- O=C1C=C(NCc2ccccc2)CCC1
    -15	-0.6
- O=C(Nc1c(F)cccc1F)c1c(F)cccc1F
    /	0.0
- CC(=O)N(C)C1(c2nnnn2CCOC(=O)Nc2ccc(Cl)cc2)CCCCC1
    -5	/
- O=C1NC(=NC2CCCC2)S/C1=C\c1ccc(Cl)cc1
    5	/
- Oc1ccc2ccccc2c1C=NCc1cccnc1
    /	3.9
- CC1(C)Cc2ccccc2-c2nnc(-c3ccccc3)n21
    5	16
- CCc1ccc(/C=C2\SC(=S)N(CCC(=O)N3CCCc4ccccc43)C2=O)cc1
    -22	/
- O=C(O)Cc1ccc2c(c1)OCCCO2
    2	9.6
- CCC(=O)N(C)c1nnc(-c2cccc(C)c2)s1
    4	-0.4
- O=c1c2cnn(-c3ccccc3)c2nc(-c2ccco2)n1-c1ccccc1
    5	/

Two records picked at random from the list so far, as already listed:
Every second line gives: S aureus helic	MgrA-DNA mod
- O=C1C=C(NCc2ccccc2)CCC1
    -15	-0.6
- Oc1ccc2ccccc2c1C=NCc1cccnc1
    /	3.9

More structures
Every second line gives: S aureus helic	MgrA-DNA mod
- CCC(=O)N1CCc2cc(Br)cc(S(=O)(=O)NCCN3CCN(c4ccccc4F)CC3)c21
    -7	/
- C=COCCn1c(-c2nonc2N)nc2ccccc21
    6	-0.2
- CNc1oc(-c2ccc(OC)cc2)nc1C#N
    23	0.7
- CCN(CC)c1nc(-c2ccccc2F)nc2ccccc12
    -2	0.5
- N#Cc1nc(Cc2ccccc2)oc1NCCc1ccccc1
    9	-0.9
- CCOc1ccc2nc(SCc3ccc4c(c3)OCO4)sc2c1
    14	-0.1
- O=C(Cc1ncon1)Nc1cc(Cl)cc(Cl)c1
    /	3.1
- COCCNC(=S)N1CCC(NC(=O)NC23CC4CC(CC(C4)C2)C3)CC1
    12	-0.3
- CC(=O)Nc1ccc(-c2nnc3n2CCCCC3)cc1
    8	/
- CCCCCCc1nnc(NC(=O)CC)s1
    8	0.6
- CC(=O)Nc1ccc(S(=O)(=O)Nc2ccc([N+](=O)[O-])cc2)cc1
    /	3.5
- COC(=O)c1scc(Br)c1O
    /	-1.7
- Oc1c(CN2CCCC2)cc(Cl)c2cccnc12
    15	/
- O=C(c1ccco1)N1CCN(C2(c3ccccc3)C(=O)c3ccccc3C2=O)CC1
    9	/
- O=C(NCCC1=CCCCC1)c1cc2c(=O)[nH]c3ccccc3c2s1
    -10	1.2
- C/C(=C/c1ccccc1)C(=O)N1CC(C)OC(C)C1 (stereo not drawn)
    -7	1.2
- c1ccc(CNCC2CCCO2)cc1 (stereo not drawn)
    0	/
- Cc1nn(-c2ccccc2)c2sc(C(=O)OCC(=O)NC3CCCCCC3)cc12
    18	/
- CC1(C)OC(=O)C(C2C3CC4CC(C3)CC2C4)C(=O)O1 (stereo not drawn)
    /	0.8
- CCOC(=O)C1=C(c2ccccc2)NC(=O)NC1c1cc(Br)c(O)c(OC)c1 (stereo not drawn)
    /	-1.8
- N#Cc1ccc(NC(=O)CNCCN2CCOCC2)cc1
    14	-4.0
- O=C(O)CCC(=O)N1CCCCC1
    0	2.3
- CCOC(=O)c1c(-c2ccccc2)oc2ccc(OC(=O)CC)cc12
    -12	/
- O=C(NCc1ccco1)c1ccc2c(c1)N(Cc1ccccc1)C(=O)c1ccccc1S2=O (stereo not drawn)
    -1	/
- Cc1ccc(S(=O)(=O)N2C(=O)CCC2C(=O)N2CCCC2)cc1 (stereo not drawn)
    10	-1.2
- CCn1cc(S(=O)(=O)N2CCC(C(=O)O)CC2)cn1
    4	-4.7
- COc1ccc(C)cc1CCNCc1ccc(NC(C)=O)cc1
    0	/
- CC1=Nc2cc(C(=O)NCc3ccco3)ccc2Sc2ccc(C)cc21
    28	/
- Cc1cnc(NC(=O)CSc2ccccc2)s1
    2	-1.3
- Cc1cc(C(=O)Nc2c(-c3ccccc3)c(C(F)(F)F)nn2C)no1
    /	0.8
- Cc1ccc(-n2c(=O)c3c(c4cc(C)ccc4n3C)n(C)c2=O)cc1
    30	/
- CN(C)C(=S)NC(=O)c1ccccc1
    8	/
- CCn1c(SC)nnc1C1CCCN1C(=O)N(c1ccccc1)c1ccccc1 (stereo not drawn)
    17	-1.6
- Cc1ccc(OCC(=O)NCc2ccc(C(=O)O)cc2)cc1C
    2	-3.1
- Cc1ccc(N2COc3ccc(Cl)cc3C2)cc1
    0	-2.7
- C=CCn1c(SC(C)C)nc2sc3c(c2c1=O)CCCC3
    15	-0.8
- O=C(Cc1ccccc1)OC1OCCOC1OC(=O)Cc1ccccc1 (stereo not drawn)
    -5	/
- COc1ccc(/C=N/NC(=S)NC2CC3CCC2C3)cc1OC (stereo not drawn)
    /	-1.1
- CCOc1cc(C2C3=C(CCCC3=O)OC3=C2C(=O)CCC3)ccc1OCC(=O)O
    -24	/
- CCOC(=O)c1oc2ccccc2c1CN1CCC(C(N)=O)CC1
    13	/
- OC1CCCCC1N1CCC(c2ccccc2)C1 (stereo not drawn)
    8	/
- Cc1noc(C)c1CSc1nnc(-c2ccc(Br)cc2)n1C1CCCCC1
    -10	/
- c1ccc(C(c2ccccc2)N2CCN(Cc3nnnn3Cc3ccc4c(c3)OCO4)CC2)cc1
    7	0.9
- CC(=O)Nc1c(C#N)c(C)n(-c2ccccc2)c1C(=O)c1ccccc1
    /	2.2
- O=c1c2ccccc2nc2oc3ccccc3n12
    22	6.4
- O=C(NCCN1C(=O)S/C(=C\c2ccccc2F)C1=O)C1Cc2ccccc2CN1C(=O)c1ccco1 (stereo not drawn)
    -27	/
- Cc1ccc(CCNC(=O)Cc2noc3ccccc23)cc1
    -2	1.1
- CC1(C)CC(=O)C=C(NCC(O)c2ccccc2)C1 (stereo not drawn)
    16	3.8
- S=c1[nH]nc2nc3c4ccccc4c4ccccc4c3nn12
    /	9.0
- Fc1cccc(-n2ccc(-c3ccccc3)n2)n1
    /	-0.8

(continued)
Every second line gives: S aureus helic	MgrA-DNA mod
- COC(=O)c1ccc(C=Nc2ccc3oc(-c4ccc(N(C)C)cc4)nc3c2)cc1
    19	0.3
- Cc1cc(C)c2c(c1)-c1cc(C)nn1C(c1ccc(N3CCOCC3)cc1)N2 (stereo not drawn)
    -3	/
- C1=C(c2ccccc2)NN=C(/N=C/c2ccco2)S1
    6	-2.3
- O=C1CCC(=O)N1C(c1ccccc1)c1ccccc1
    16	1.0
- Cc1ccc(-n2nc(C(=O)NC(C)CCc3ccccc3)c3c4ccccc4n(C)c3c2=O)cc1 (stereo not drawn)
    15	2.1
- CC(=O)Nc1nonc1-c1nc2ccccc2n1CCCC#N
    -16	/
- CCCCc1ccc(NC(=O)C=C(C)C)cc1
    22	2.0
- CC(NC(C(=O)O)c1ccccc1)c1ccccc1 (stereo not drawn)
    8	-2.8
- COC(=O)c1cc(=O)[nH]c2ccccc12
    4	/
- COc1cc(-c2nnc(SCC(=O)NC3CCCC(C)C3C)o2)cc(OC)c1OC (stereo not drawn)
    -6	/
- O=C(O)CCS(=O)(=O)Cc1ccccc1Cl
    3	-0.3
- C/C(=N\NC(=O)Cc1cc(=O)[nH][nH]1)c1cccs1
    -5	/
- O=C(O)C1CCN(Cc2ccc(Cl)cc2)CC1
    2	2.9
- COc1ccc(N=C2SC(C(=O)Nc3ccc(F)cc3)CC(=O)N2Cc2ccc3c(c2)OCO3)cc1 (stereo not drawn)
    /	2.5
- Cc1nc(N)nc(COc2ccccc2)n1
    /	-2.2
- COC(=O)c1cccc(N2C(=O)C3C(C2=O)C2(C)C=CC3(C)O2)c1 (stereo not drawn)
    /	-4.6
- CC(=O)Nc1sc2c(c1-c1nc3ccccc3s1)CCCC2
    8	/
- O=C(CSc1ncccc1C(=O)Nc1ccnn1C1CCCCC1)Nc1ccc2c(c1)OCO2
    4	/
- CC(=O)Nc1cccc(C(=O)OCC(=O)N2c3ccccc3CC2C)c1 (stereo not drawn)
    -18	-1.8
- OC(c1ccccc1)C1CN(Cc2ccccc2)CCC1(O)c1ccccc1 (stereo not drawn)
    -4	-1.4
- CCOc1ccc(-c2cccc(NC(=O)c3c(OC)cccc3OC)c2)nn1
    10	/
- O=C1C2C3c4ccccc4C(c4ccccc43)C2C(=O)N1CN1CCOCC1 (stereo not drawn)
    3	1.6
- CN1CCN(C(=O)c2ccc3c(c2)NC(=O)/C(=C/c2ccccc2)S3)CC1
    2	/
- Cc1ncc(CN2CCCCC2)c(N)n1
    -5	/
- CCN(CC)C(CN)c1ccccc1 (stereo not drawn)
    22	6.7
- CCCNC(=O)NC1CCCc2ccccc21 (stereo not drawn)
    8	4.3
- Cn1c(Cl)cnc1CSc1nnc(-c2ccc3c(=O)n4c(nc3c2)CCCCC4)o1
    3	/
- Cc1nn(Cc2ccc(C(=O)Nc3sc4c(c3C(=O)OC(C)C)CCCC4)o2)c(C)c1Cl
    7	2.0
- CCOC(=O)c1cnn(C(=O)c2ccc(-n3c(C)ccc3C)cc2)c1N
    /	-0.5
- CCOc1ccc2[nH]c(=O)c(-c3nc4cccc(C)n4c3NCc3ccco3)cc2c1
    4	0.4

Filtered by structure, the entries above containing bromine (four)
Every second line gives: S aureus helic	MgrA-DNA mod
- CCC(=O)N1CCc2cc(Br)cc(S(=O)(=O)NCCN3CCN(c4ccccc4F)CC3)c21
    -7	/
- COC(=O)c1scc(Br)c1O
    /	-1.7
- CCOC(=O)C1=C(c2ccccc2)NC(=O)NC1c1cc(Br)c(O)c(OC)c1 (stereo not drawn)
    /	-1.8
- Cc1noc(C)c1CSc1nnc(-c2ccc(Br)cc2)n1C1CCCCC1
    -10	/

Remaining list, next part.
Every second line gives: S aureus helic	MgrA-DNA mod
- Cc1nnsc1C(=O)N=S(C)(C)=O
    /	-1.6
- CN(C)CCOC(=O)c1sc2ccccc2c1Cl
    3	-2.1
- COCC(C)n1c(C)cc(/C=C(\C#N)C(=O)O)c1C (stereo not drawn)
    -13	/
- CNC(=S)N/N=C/c1ccc(-c2ccccc2C(=O)OC)o1
    1	1.8
- CCOc1ccsc1-c1nnc(-c2ccc(Cl)cc2)o1
    /	-2.2
- CN1c2ccccc2Oc2nnc(Cl)cc21
    -2	/
- CCN(CC)CCOC(=O)c1ccc(NC(=O)CCCN2C(=O)/C(=C/c3ccccc3)SC2=S)cc1
    /	-3.1
- c1ccc(-c2noc(COc3cccc4ccccc34)n2)cc1
    -4	-0.7
- CC(/C=C/c1cccc(Oc2ccc(F)cc2)c1)N(O)C(N)=O (stereo not drawn)
    /	-0.9
- COc1ccccc1/C=C1/SC(=Nc2ccccc2Cl)NC1=O
    /	1.9
- CC(C)=N/N=c1\scc(-c2ccccc2)n1Cc1ccco1
    18	/
- Cc1ccc(C(=O)OCC(=O)C(C)(C)C)cc1
    15	-1.3
- Cc1cc(F)ccc1S(=O)(=O)Nc1ccccc1C(=O)OCC(=O)NCc1ccco1
    -2	/
- O=C(CN1C(=O)CC(c2ccccc2)S(=O)(=O)c2ccccc21)NC1CCCCC1 (stereo not drawn)
    2	-0.8
- c1ccc(CN2CCN(CC3CCCCC3)CC2)cc1
    3	-5.7
- O=C(O)C1CC(=O)N(c2cccc(Cl)c2)C1 (stereo not drawn)
    7	-5.2
- CC12CCCC(C(=O)NN)(CCC1)C2
    -12	/
- CN(C)C(=O)C(OC(=O)c1cc(=O)[nH]c2ccccc12)c1ccccc1 (stereo not drawn)
    -5	/
- CCCCSC1=NC(=O)CC(=O)N1
    11	/
- O=S(=O)(c1ccccc1)N(CCOc1ccccc1)Cc1ccco1
    13	/
- Cc1noc(C)c1COC(=O)C1COc2ccccc2O1 (stereo not drawn)
    25	/
- COc1cc(OC)cc(C(C)(C)OC(=O)NN)c1
    /	2.2
- Cc1sc2ncn(CC(=O)NCCc3ccc(S(N)(=O)=O)cc3)c(=O)c2c1C
    -17	/
- CC(C)c1nnc(NC(=O)c2cccs2)s1
    -8	/
- Cc1noc(CCn2c(=O)[nH]c3ccccc3c2=O)n1
    -1	0.2
- Clc1cccc(-c2nc(N3CCC4(CC3)OCCO4)nc3c2COc2ccccc2-3)c1
    -20	/

Source: PubChem BioAssay (ICCB-Longwood Screening Facility, Harvard Medical School)

A portion of the library, so the mix of outcomes need not match the whole.
